Mtb H37Rv: Mycobacterium tuberculosis H37Rv growth inhibition, cell based, confirmatory dose response (AID 1949) | most inactive calls were filed without a number and no value below 0 was filed | one-dose inhibition, % at 10 µg/mL; IC50 in µg/mL for titrated hits | 100,000 compounds, 1.6% hits;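 active = confirmed in a dose series; inconclusive = about 50% or more but not retested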;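 also: bacteria grown 7 days with compound before Alamar blue readout; 0% = untreated bacteria and 100% = reference antibiotic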
The depositor's hits bear a star; i = inactive; ? = inconclusive. Some of the compounds tested; the hit share may differ from the screen's.

SMILES | Mtb H37Rv
CS(=O)(=O)N(CC(=O)NC1CCCCCC1)Cc1ccccc1 | 4.3%
O=C(NCc1ccc2c(c1)OCO2)c1ccc(C#Cc2ccccc2)cc1 | i
Clc1ccccc1CSc1nnc2c3ccccc3n(Cc3ccccc3)c2n1 | 0.5%
Cc1sc(NC(=O)C2(C)CC2(Cl)Cl)c(C(N)=O)c1C (stereo not given) | 4.4%
CCC(=O)c1ccc(OC(=O)c2ccccc2[N+](=O)[O-])cc1 | i
Cc1cc(C)c(S(=O)(=O)NCc2ccc3c(c2)OCO3)cc1C | i
CC(NC(=S)NC1CCCCC1)c1ccncc1 (stereo not given) | 0.5%
CCc1nnc2sc(-c3cccnc3)nn12 | i
O=C(NC(=S)NCc1ccco1)c1ccc2c(c1)OCO2 | i
CCN(CC)Cc1c(O)ccc2cc(-c3nc4ccccc4s3)c(=O)oc12 | 1.2%
Cc1ccccc1OCC(=O)Nc1ccc(N2CCN(c3c(F)c(F)c(F)c(F)c3F)CC2)cc1 | i
O=C(Nc1ccc(Cl)cc1)c1cn(-c2ccccc2)nc1-c1cccc([N+](=O)[O-])c1 | i
CCOC(=O)c1ccccc1Nc1c([N+](=O)[O-])c(=O)oc2ccccc12 | i
Cc1cc(Cl)ccc1OCC(O)CN1CCN(c2ccccc2F)CC1 (stereo not given) | 1.3%
COc1ccc(Cl)cc1NC(=O)CSc1nnc(CNC(=O)c2ccccc2C)n1C | i
O=C(CN(c1ccc(F)cc1)S(=O)(=O)c1ccc2c(c1)OCCO2)NCc1ccccc1 | i
CCS(=O)(=O)c1nc(S(=O)(=O)c2ccc(C)cc2)c(N2CCN(c3ccccc3)CC2)s1 | i
CCN(CC)C(=O)c1cn(-c2ccccc2)nc1-c1ccc(C)cc1 | 9.2%
CC(=O)C1=C(C)OC(N)=C(C#N)C12C(=O)N(C)c1ccccc12 (stereo not given) | i
Cc1sc2ncnc(Nc3ccc(F)cc3)c2c1-c1ccccc1 | 1.1%

An excerpt of these results, in CSV form.
molecule,Mtb H37Rv
CCC(=O)c1ccc(OC(=O)c2ccccc2[N+](=O)[O-])cc1,i
Cc1cc(C)c(S(=O)(=O)NCc2ccc3c(c2)OCO3)cc1C,i
CC(NC(=S)NC1CCCCC1)c1ccncc1 (stereo not given),0.5%
CCc1nnc2sc(-c3cccnc3)nn12,i
O=C(NC(=S)NCc1ccco1)c1ccc2c(c1)OCO2,i
CCN(CC)Cc1c(O)ccc2cc(-c3nc4ccccc4s3)c(=O)oc12,1.2%
Cc1ccccc1OCC(=O)Nc1ccc(N2CCN(c3c(F)c(F)c(F)c(F)c3F)CC2)cc1,i
O=C(Nc1ccc(Cl)cc1)c1cn(-c2ccccc2)nc1-c1cccc([N+](=O)[O-])c1,i
CCOC(=O)c1ccccc1Nc1c([N+](=O)[O-])c(=O)oc2ccccc12,i
Cc1cc(Cl)ccc1OCC(O)CN1CCN(c2ccccc2F)CC1 (stereo not given),1.3%
COc1ccc(Cl)cc1NC(=O)CSc1nnc(CNC(=O)c2ccccc2C)n1C,i
O=C(CN(c1ccc(F)cc1)S(=O)(=O)c1ccc2c(c1)OCCO2)NCc1ccccc1,i
CCS(=O)(=O)c1nc(S(=O)(=O)c2ccc(C)cc2)c(N2CCN(c3ccccc3)CC2)s1,i
CCN(CC)C(=O)c1cn(-c2ccccc2)nc1-c1ccc(C)cc1,9.2%
CC(=O)C1=C(C)OC(N)=C(C#N)C12C(=O)N(C)c1ccccc12 (stereo not given),i
Cc1sc2ncnc(Nc3ccc(F)cc3)c2c1-c1ccccc1,1.1%

(more compounds)
SMILES | Mtb H37Rv
CCc1cccc(C)c1NS(=O)(=O)c1ccc2c(c1)OCCO2 | i
O=C(CSc1nnc(-c2ccccn2)n1-c1ccccc1)c1ccc(Cl)cc1 | 1.1%
COc1ccc(NC(=O)c2cc3nc(C)cc(C)n3n2)cc1OC | i
CCOc1ccc(N2CC(C(=O)NCCCN3CCOCC3)CC2=O)cc1 (stereo not given) | i
O=C(CSc1nc(O)cc(=O)n1-c1ccc(F)cc1)NCc1ccco1 | i
N=c1n(CCO)c2ccccc2n1CCOc1ccccc1Cl | i
CS(=O)(=O)N1CCN(c2ccc(NC(=O)c3cccc(OCc4ccccc4)c3)cc2)CC1 | i
CCCN1C(=O)C(O)(c2c[nH]c3ccccc23)c2ccccc21 (stereo not given) | i
CN(Cc1ccccc1)C(=O)COc1cc(Cl)ccc1Cl | i
Cc1cc(OCCCCN2CCOCC2)ccc1C(C)C | 5.3%
N#Cc1ccc(C(=O)Nc2cccnc2)c(F)c1 | i
Cc1cc(NC(=O)c2c(F)c(F)c(F)c(F)c2F)no1 | i
O=C(Nc1ccccc1N1CCN(C(=O)c2ccccc2)CC1)c1sc2ccccc2c1Cl | i
Cc1ccc(Cl)cc1NS(=O)(=O)c1ccc(NS(=O)(=O)c2ccc(F)cc2)cc1 | i
O=C(CSCc1ccc([N+](=O)[O-])cc1)Nc1ccccc1C(=O)NCCc1ccccc1 | i
CN1CCCC(CN2c3ccccc3Sc3ccccc32)C1 (stereo not given) | i
O=S(=O)(Nc1ccc(F)cc1)c1cccc(S(=O)(=O)c2ccccc2)c1 | i
CN(C)S(=O)(=O)c1ccc(NC(=O)c2ccccc2I)cc1 | i
Cc1csc(NC(=O)CSc2nc3c(c(C(F)(F)F)c2C#N)CCC3)n1 | 6.6%
Cc1cc(C)c(OCC(=O)Nc2cccnc2)c(Br)c1 | 3.1%
c1ccc(-c2nnc3sc(CN4CCc5ccccc54)cn23)cc1 | i
Cc1cc(Br)cc(C)c1OCC(=O)NNC(=O)c1cccs1 | i
O=C(CSc1nc2ccccc2[nH]1)Nc1ccccc1NC(=O)CSc1nc2ccccc2[nH]1 | i
Cc1ccc2[nH]c(=O)c(N3CCCCC3)c(-c3ccccc3)c2c1 | i
CC1CC(C)(C)N2C(=O)C(=O)c3cc(OC(=O)c4ccccc4)cc1c32 (stereo not given) | ?
O=C(CCN1C(=O)c2ccccc2C1=O)N1CCCC1 | i
CN(CC(=O)Nc1cc(C(F)(F)F)ccc1Cl)S(=O)(=O)c1cc(Cl)ccc1Cl | i
CC(=O)NC1C(=O)Nc2c(C)cc(C)cc21 (stereo not given) | i
CCOC(=O)COc1ccc(S(=O)(=O)N2CCN(c3ccccc3F)CC2)cc1 | ?
CC(C(=O)N1CCCC1)N(c1ccccc1)S(C)(=O)=O (stereo not given) | i
CC(C)CNC(=O)c1ccccc1NC(=O)CSc1ccc(Cl)cc1 | 1.6%
NC(=S)N1CCC(c2ccccc2)=N1 | i
COC(=O)Nc1nnc(Cc2ccccc2F)s1 | 2.1%
COc1cc(C(=O)Nc2ccc(Br)cc2C(=O)O)ccc1OC(C)=O | i
CCOc1ccc(NC(=O)CSc2nnc(-c3ccc([N+](=O)[O-])cc3)n2Cc2ccccc2)cc1 | i
CC1CN(C(=O)c2ccc(Br)o2)CC(C)O1 (stereo not given) | 0.5%
FC(F)(F)c1ccccc1NC(=S)N1CCc2ccccc2C1 | i
COc1ccc(C(=O)NCC(=O)Nc2cccc(C(F)(F)F)c2)cc1 | i
O=C(CN(Cc1c(F)cccc1Cl)S(=O)(=O)c1ccc(Cl)cc1)N1CCOCC1 | i
c1ccc2c(c1)CC1(CCCCC1)N=C2Nn1cnnc1 | 0.9%
CC(C)c1ccc(C(=O)Nc2ccc(N(C)C)cc2)cc1 | 0.5%
O=S(=O)(NCCCO)c1cc(Cl)ccc1Cl | i
O=C(Oc1ccc(NC(=O)c2ccco2)cc1)c1ccccc1 | 33.1%
CC(C)Oc1ccc(CNC(=O)C2(c3ccccc3)CCOCC2)cc1 | 1.7%
CC1CCCN(CCCOc2cc(Cl)ccc2Cl)C1 (stereo not given) | i
Cc1cc(NC(=O)c2ccc(OCc3ccccc3)cc2)c(C)cc1I | i
Cc1nn(-c2ccccc2)c2c1C(c1ccc(OCc3ccccc3)cc1)SCC(=O)N2 (stereo not given) | 3.4%
COc1cccc(OC)c1OCCCN1CC(C)OC(C)C1 (stereo not given) | i
COC(=O)c1ccc(N(C)S(=O)(=O)c2ccccc2)cc1 | 0.7%
COc1ccc(NC(=S)N2CCc3ccccc3C2)cc1 | 0.6%
O=C1CC(c2nc3ccccc3n2Cc2ccccc2)CN1c1ccccc1 (stereo not given) | 2.5%
COc1ccc(N2CCN(C(=O)COc3ccc(Cl)cc3Br)CC2)cc1 | 15.0%
O=[N+]([O-])c1ccc(N2CCN(S(=O)(=O)c3ccc(Cl)cc3)CC2)cc1SCc1ccco1 | 2.2%
O=C(NC(=S)Nc1c(F)cc(F)cc1Br)c1cc2ccccc2o1 | i
CCOC(=O)C1CCN(C(=O)Nc2ccc3oc(C)nc3c2)CC1 | i
CNC(=S)Nc1cc(C)ccc1OC(F)F | i
CCN1CCCC1CNC(=O)C(=O)Nc1ccccc1OC (stereo not given) | i
O=C(Nc1cccc(Br)c1)c1ccc(OC2CSC2)cc1 | i
CCc1ccc(OCC(=O)Nc2cc(F)ccc2C)cc1 | i
COc1ccccc1NC(=O)CN(c1cccc(C)c1C)S(=O)(=O)c1ccc(C)cc1 | i
Next structures:
SMILES | Mtb H37Rv
CCc1ccc(NC(=O)CSC2CC(=O)N(c3ccc(CC)cc3)C2=O)cc1 (stereo not given) | i
Cc1nnc(SCCCC(=O)c2ccc(C(C)(C)C)cc2)s1 | 12.8%
CCNS(=O)(=O)c1cc(C)ccc1-n1cnnn1 | i
CCCC(=O)Oc1ccc(C(=O)Nc2ccc(C)cc2C)cc1 | 8.3%
COc1ccc(Cc2nnc(NC(=O)c3cccc(OC)c3)s2)cc1 | i
CC12CCC3(CO)COC(c4ccccc4O1)C2C3 (stereo not given) | i
Cc1cccc(C)c1OCc1nnc(SCC(=O)N2CCN(c3ccccc3)CC2)n1-c1ccccc1 | 2.9%
CCCS(=O)(=O)c1nnnn1-c1cccc(OC)c1 | 0.65µg/mL*
COc1ccc(NC(=S)c2ccc(N(C)C)cc2)cc1 | i
CS(=O)(=O)N1CCCC(C(=O)Nc2ccc(Br)cc2F)C1 (stereo not given) | i
Cc1ccc(S(=O)(=O)Cc2ccsc2[N+](=O)[O-])cc1 | 16.4%
Cc1ccc(NC(=O)C2CCN(C(=O)c3ccccc3)CC2)cc1Cl | 18.6%
COc1ccc(NC(=S)NCCn2cc(Br)cn2)cc1OC | i
Cc1ccccc1-n1c(SCC(=O)Nc2ccccc2)nc2nc3c(cc2c1=O)CCCC3 | i
COc1ccc(NC(=S)Nc2ccc(OC)cc2OC)c(OC)c1 | i
CCCN1CCN(C(=O)c2ccncc2)CC1 | 1.8%
O=[N+]([O-])c1cccc(-c2nc(NCc3ccccc3)c3ccccc3n2)c1 | 1.0%
O=C(CSC1CC(=O)N(c2ccc(Cl)cc2)C1=O)Nc1ccc2ccccc2c1 (stereo not given) | i
Cc1ccnc(NS(=O)(=O)c2ccc(CC(C)C)cc2)n1 | i
O=C(NN1C(=O)CCC1=O)C(O)c1ccccc1 (stereo not given) | i

Next part; it opens with the 2 that closed the last part.
SMILES | Mtb H37Rv
Cc1ccnc(NS(=O)(=O)c2ccc(CC(C)C)cc2)n1 | i
O=C(NN1C(=O)CCC1=O)C(O)c1ccccc1 (stereo not given) | i
COc1ccc(CCCc2nnc(SCC(=O)Nc3c(C)cc(I)cc3C)o2)cc1 | 12.0%
COc1cc([N+](=O)[O-])ccc1NC(=O)c1cc(-c2ccc(OC)c(OC)c2)nc2ccccc12 | 3.2%
C=CCn1c(=N)n(CCO)c2ccccc21 | i
CCc1cc(OCCNC(C)CC)ccc1Cl (stereo not given) | i
O=C(CCN1CCOCC1)Nc1ccc2c(c1)CCC2 | i
CC(C)(C)NC(=O)C1CCN(C(=O)c2ccc(C(C)(C)C)cc2)CC1 | i
CCOCC(=O)Nc1cccc(C(=O)OCC)c1 | ?
COc1cccc(NC(=O)C2CC(=O)N(c3cccc(C)c3C)C2)c1 (stereo not given) | i
Cc1cccc(C)c1OCC(=O)Nc1ccc(Oc2ccccc2)cc1 | i
Cc1ccc(S(=O)(=O)Nc2ccccc2)cc1C(N)=O | i
Cc1ccc(NC(=O)c2ccc(OC(=O)c3ccc(Cl)cc3Cl)cc2)cc1 | 33.4%
COc1ccc(C)cc1NC(=O)NCc1ccccc1F | i
O=c1c(-c2cccc(Br)c2)[n+]([O-])c2ccccc2n1O | i
COc1ccc(C(=O)NC(=S)NC(C)c2ccccc2)cc1 (stereo not given) | i
Cc1cccc(C(C)C)c1NS(=O)(=O)c1ccc2c(c1)OCCO2 | i
Cc1ccc(C)c(C(C)NC(=S)Nc2ccc(S(N)(=O)=O)cc2)c1 (stereo not given) | i
Cc1ccc(C(C)C)c(OCC(=O)Nc2cccc(NC(=O)C(C)C)c2)c1 | i
Cc1ccc(NC(=O)CCC(=O)OCc2ccc(Cl)cc2Cl)cc1C | 1.2%
CCN(CC)C(=O)C(=O)Nc1ccc(OC)c(Cl)c1 | 0.7%
COc1ccc(-c2cc(-c3cccs3)nc3sc(C(N)=O)c(N)c23)cc1 | 36.6%
CSc1nc(-c2ccc(Cl)cc2)nn1C(=O)Cc1ccccc1 | i
COc1cc2c(cc1NC(=O)Nc1ccc(Cl)cc1)oc1ccccc12 | 1.33µg/mL*
COc1ccc(C(=O)COC(=O)c2ccc(Br)cc2)cc1 | i
CCOc1ccc(N2C(=O)CC(NCc3ccc(C(F)(F)F)cc3)C2=O)cc1 (stereo not given) | i
COc1cccc(NC(=O)c2ccc(N3CCNCC3)c([N+](=O)[O-])c2)c1 | i
CN(c1ccccc1C(=O)Nc1ccc(Cl)c(C(F)(F)F)c1)S(C)(=O)=O | i
CNC(=O)C1=C(C)NC(=S)NC1c1c(F)cccc1Cl (stereo not given) | i
O=C(Nc1ccccc1Sc1ccccc1)C1CCN(S(=O)(=O)c2ccc(F)cc2)CC1 | 0.9%
O=C1CC(c2ccccc2)CC2=C1C(c1ccc(F)c(Br)c1)Nc1ccccc1N2 (stereo not given) | 12.3%
CN(C)S(=O)(=O)Nc1cc(Cl)cc(Cl)c1 | i
CC(=O)Nc1nc(-c2ccc(Cl)cc2Cl)nc2c1c(=O)oc1ccccc12 | i
COc1ccc(OC)c(NC(=S)NC(NC(=O)c2cccc(C)c2)C(Cl)(Cl)Cl)c1 (stereo not given) | 3.0%
Cc1sc2ncnc(N(C)C)c2c1C | i
O=C(CSc1nc(O)cc(=O)n1-c1ccccc1)NCc1ccccc1 | i
Cc1cc(N)nc(COc2ccc([N+](=O)[O-])cc2)n1 | i
C=CCOc1ccc(C2C(C(=O)c3ccco3)=C(O)C(=O)N2CCN(C)C)cc1OC (stereo not given) | i

From PubChem BioAssay
